GLA inh pH 4.5 = qHTS Assay for Inhibitors of Human alpha-Galactosidase at pH 4.5; activity change, negative = inhibition, % at 105 µM; purified enzyme, 4-MU-alpha-Gal fluorescence, pH 4.5; 230,000 tested, under 10 active; inconclusive = small, poorly fitted or top-dose-only inhibition, or a rising curve; inactive = flat fitted curve, though single readings scatter; no compound was filed as active;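 further: 0% = full activity with enzyme and -100% = basal without enzyme; dose as in the result columns while the protocol names 77 µM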
Target sequence (P06280 whole entry, looked up): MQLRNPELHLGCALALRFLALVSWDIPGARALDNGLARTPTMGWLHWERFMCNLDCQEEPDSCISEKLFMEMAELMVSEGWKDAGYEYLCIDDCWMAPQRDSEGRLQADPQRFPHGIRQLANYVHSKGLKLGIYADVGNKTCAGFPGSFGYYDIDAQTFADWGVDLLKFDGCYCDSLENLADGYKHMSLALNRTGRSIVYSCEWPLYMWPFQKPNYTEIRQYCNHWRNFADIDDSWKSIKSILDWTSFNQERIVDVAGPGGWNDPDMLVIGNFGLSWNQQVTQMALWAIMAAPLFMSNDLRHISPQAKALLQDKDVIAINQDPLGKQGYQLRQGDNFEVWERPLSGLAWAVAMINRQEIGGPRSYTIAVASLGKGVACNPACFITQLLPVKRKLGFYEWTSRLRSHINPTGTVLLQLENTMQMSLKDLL
Rango-impB inh = qHTS Assay for Inhibitors of Rango (Ran-regulated importin-beta cargo) - Importin beta complex formation | Rango CFP/YFP FRET sensor + importin beta, 45 min | hit rate 0.031% among 340,000 | Potency, µM (titrated, usually from 92.2 µM), without a hit: at the top dose inhibition of complex formation; active = rising FRET ratio curve, often small or poorly fitted; inconclusive = mostly compound fluorescence or quenching in the first reads; inactive = flat curves in all reads;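 further: potency means the concentration at half of the fitted maximal effect; 0% = DMSO wells and 100% = buffer wells lacking importin beta; nearly all actives have a fitted effect of over 15% in size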
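FRET biosensor (snurportin 1 IBB flanked by EYFP and cerulean), 50 nM, with compound 5 min, then 0.125 microM importin beta in PBS, 1 mM DTT, 0.02% Tween-20, 0.1% BSA. CFP/YFP ratio read after 45 min at room temperature; pre-read flags interference.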
miR-21 reporter = qHTS Assay for Modulators of miRNAs and/orActivators of miR-21; 340,000 tested, under 10 active; HeLa miR-21 FLuc reporter, luciferase, 48 h; Potency, µM (top dose mostly 38.3 µM), inactives show at the highest dose reporter change, positive = more light; AID 2288, 2010; active = well fitted rising curve with a large enough effect; inconclusive = small, poorly fitted or top-dose-only effect; inactive = no such curve, though single readings can be large or run the other way;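 further: % of control where 0% means no effect; miR-21 action dims this reporter so a rising signal means less miR-21 action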
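Using DMEM plus 10% FBS, HeLa miR-21-FLuc cells are incubated with test compounds (final up to about 40uM) for 48 hours; firefly luciferase signal is then imaged following reagent-mediated lysis.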
Rango release inh = qHTS Assay for Inhibitors of RanGTP induced Rango (Ran-regulated importin-beta cargo) - Importin beta complex dissociation; Snurportin-1 (Homo sapiens) + GTP-binding nuclear protein Ran (Homo sapiens) + Importin …; hit rate 0.071% among 340,000; Potency, µM (top dose mostly 46.1 µM), without a hit: top-dose activity change, negative = inhibition; Biochemical FRET Rango-importin beta, RanGTP-induced dissociation; active means falling FRET ratio curve, often poorly fitted, with flat reads before Ran was added; inconclusive means other falling curves, or compound fluorescence or quenching; inactive means flat or rising ratio curve;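 further: potency means the concentration at half of the fitted maximal effect; % of control where 0% means no effect; nearly all actives have a fitted effect of over 45% in size; -100% = wells without RanGTP and RCC1; the record marks most hits as doubtful in a second field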
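Compounds preincubate 5 min with complex of recombinant Rango and importin beta in PBS with 1 mM DTT. Ran (0.6 uM) loaded with 2 mM GTP plus 0.2 uM RCC1 starts dissociation; FRET is recorded 45 min later.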
Numbers without * were called inactive; ? = inconclusive; . = not tested or not shown; & = joins results of further samples; [ ] = remark or other dose.

The opening 6 compounds as a preview:
1) O=C(NCc1ccc(F)cc1)c1ccc(NC(=O)C2CCCO2)cc1 (centres undefined)
2) O=C(Cc1ccccc1)N1CCCC(c2nc(-c3ccc(S(=O)(=O)N4CCCC4)cc3)no2)C1 (centres undefined)
3) COc1ccc(-c2[nH]ncc2CNC(C)c2cn(C)nc2C)c(F)c1 (centres undefined)
4) Cc1c(Br)c(O)c(Br)c(O)c1/C=N/n1c(-c2ccccc2)n[nH]c1=S
5) O=C(COc1ccc([N+](=O)[O-])cc1)Nc1cccc2nsnc12
6) CCN(CC(=O)NC1CCS(=O)(=O)C1)c1ccc(S(C)(=O)=O)cc1[N+](=O)[O-] (centres undefined)

entry no.	1	2	3	4	5	6
GLA inh pH 4.5	.	-9	-1	.	.	-1
Rango-impB inh	0.1%	0.6%	15%	?	-0.7%	0.5%
miR-21 reporter	-7%	-1%	0%	10%	0%	-3%
Rango release inh	0%	0%	?	-7%	12%	10%

The list itself, repeating the preview:
1) O=C(NCc1ccc(F)cc1)c1ccc(NC(=O)C2CCCO2)cc1 (centres undefined)
2) O=C(Cc1ccccc1)N1CCCC(c2nc(-c3ccc(S(=O)(=O)N4CCCC4)cc3)no2)C1 (centres undefined)
3) COc1ccc(-c2[nH]ncc2CNC(C)c2cn(C)nc2C)c(F)c1 (centres undefined)
4) Cc1c(Br)c(O)c(Br)c(O)c1/C=N/n1c(-c2ccccc2)n[nH]c1=S
5) O=C(COc1ccc([N+](=O)[O-])cc1)Nc1cccc2nsnc12
6) CCN(CC(=O)NC1CCS(=O)(=O)C1)c1ccc(S(C)(=O)=O)cc1[N+](=O)[O-] (centres undefined)
7) O=C(CCCSc1nc2ccccc2[nH]1)N1CCN(c2ccc([N+](=O)[O-])cc2)CC1
8) CCOC(=O)N1CCN(c2c(NCc3ccccc3Cl)c(=O)c2=O)CC1
9) Cc1ccc(NC(=O)CNC(=O)c2ccco2)cc1
10) Cc1ccc(NC(=O)NC(=O)COc2ccccc2C(N)=O)c(C)c1

entry no.	1	2	3	4	5	6	7	8	9	10
GLA inh pH 4.5	.	-9	-1	.	.	-1	2	2	.	.
Rango-impB inh	0.1%	0.6%	15%	?	-0.7%	0.5%	6.0%	-4.0%	2.8%	-1.0%
miR-21 reporter	-7%	-1%	0%	10%	0%	-3%	-1%	26%	-51%	.
Rango release inh	0%	0%	?	-7%	12%	10%	-5%	-1%	0%	21%

11) CC(C)CCNC(=O)C1CC(c2cccc([N+](=O)[O-])c2)=NO1 (centres undefined)
12) COc1ccc(C2CC(c3ccc(OC)cc3O)=NN2C(=O)c2ccccc2)cc1 (centres undefined)
13) CCOC(=O)c1nn(-c2ccc(F)cc2)c2nc(Nc3ccccc3)cc(=O)n12
14) CCOC(=O)C1=C(N)Oc2cc(O)ccc2C1c1ccccc1 (centres undefined)
15) Cn1cc(C(=O)NCCO)c(=O)c2ccccc21
16) CNC(=O)c1c(NC(=O)c2cccc(C)c2)sc2c1CCC2
17) Cc1ccc(CNS(=O)(=O)c2ccc3c(c2)n(C)c(=O)n3C)cc1
18) CCSc1cnc(-c2ccccc2)n1CC
19) C[C@H](CO)N1C[C@H](C)[C@@H](CN(C)S(C)(=O)=O)Oc2ccc(N(C)C)cc2C1=O
20) COc1cc(C(=O)NCCCCCCNC(=O)c2cc(OC)c(OC)c(OC)c2)cc(OC)c1OC

entry no.	11	12	13	14	15	16	17	18	19	20
GLA inh pH 4.5	-12	.	3	.	-4[21.1 µM]	.	.	-12	.	.
Rango-impB inh	-3.4%	-6.6%	-0.6%	?	2.2%	0.8%	-0.5%	-1.2%	-5.9%	0.1%
miR-21 reporter	0%	-5%	-9%	16%	0%	-40%	7%	-11%	.	2%
Rango release inh	-4%	-6%	-3%	?	-8%	-11%	-15%	6%	-7%	-6%

21) CN(C(=O)COC(=O)c1ccc(C#N)cc1)c1ccccc1
22) Cc1ccc(CNC(=O)CC(C)S(=O)(=O)c2ccc3c(c2)NC(=O)CS3)o1 (centres undefined)
23) Cc1ccc2nc(-c3ccccc3)c(CC(=O)O)c(C(=O)O)c2c1
24) Cc1cc(C(=O)NCCCN2CCCC2=O)cs1
25) COc1ccc(OC)c(C2C(C(=O)c3ccco3)=C(O)C(=O)N2Cc2cccnc2)c1 (centres undefined)
26) O=S(=O)(c1cccc(-c2cn3cccnc3n2)c1)N1CCOCC1
27) Cc1ccc(C)c(NC(=S)N(Cc2cccc(Br)c2)CC2CCC(C(=O)O)CC2)c1 (centres undefined)
28) O=[N+]([O-])c1ccc(NCCCN2CCOCC2)c(Cl)c1
29) Cc1ccc(S(=O)(=O)N2[C@@H](c3cccc(Cl)c3)C(C(=O)O)=CC[C@H]2c2ccc3c(c2)OCO3)cc1
30) CCN(Cc1ccccc1)S(=O)(=O)c1ccc(C(=O)Nc2nnc(C3CC3)o2)cc1

entry no.	21	22	23	24	25	26	27	28	29	30
GLA inh pH 4.5	.	.	1	1	.	27	7[21.1 µM]	-3	.	-1
Rango-impB inh	0.0%	0.8%	1.2%	-0.4%	-1.0%	0.1%	?	4.4%	-0.2%	0.7%
miR-21 reporter	1%	3%	-2%	-6%	-1%	-2%	4%	-9%	.	29%
Rango release inh	-9%	17%	-12%	-15%	-7%	2%	10%	6%	-24%	13%

31) CN(CC(=O)NC1CCCc2ccccc21)S(=O)(=O)c1cccs1 (centres undefined)
32) O=C(O)c1cc(NC(=O)c2ccc(Cl)c([N+](=O)[O-])c2)cc(C(=O)O)c1
33) O=C(Nc1ccc2c(c1)OCO2)C1CCN(Cc2cnn(-c3ccccc3)c2-n2cccc2)CC1
34) Oc1ccc2ccccc2c1C=Nc1ccccc1
35) Cn1c(-c2cccc(Br)c2)n[nH]c1=O
36) Cc1ccc(-n2c(SCC(=O)N3CCCC3)nc3c(c2=O)SCC3)cc1
37) CN1CCN(/C=C(\C#N)S(=O)(=O)c2ccc(Cl)cc2)CC1
38) O=C(Cn1nc(-c2ccc(Cl)cc2)ccc1=O)NCC1CCCO1 (centres undefined)
39) O=C(CN1CCCCC1)Nc1ccc(NC(=O)c2ccccc2Cl)cc1Cl
40) Cc1cccc(N(CC(=O)NC2CCCCC2)C(=O)c2ccc(C)s2)c1

entry no.	31	32	33	34	35	36	37	38	39	40
GLA inh pH 4.5	-8	-3	3	3	2	-3	0	1	-12	9
Rango-impB inh	-2.4%	-0.6%	-1.4%	?	-0.8%	.	?	0.4%	4.7%	-0.3%
miR-21 reporter	-11%	-1%	-2%	-7%	-15%	-1%	-1%	-3%	-19%	-4%
Rango release inh	-12%	26%	5%	0%	3%	.	-10%	-9%	1%	4%

Fetched one by one from the list above:
39) O=C(CN1CCCCC1)Nc1ccc(NC(=O)c2ccccc2Cl)cc1Cl
37) CN1CCN(/C=C(\C#N)S(=O)(=O)c2ccc(Cl)cc2)CC1

entry no.	39	37
GLA inh pH 4.5	-12	0
Rango-impB inh	4.7%	?
miR-21 reporter	-19%	-1%
Rango release inh	1%	-10%

(continued)
41) O=C(COc1ccccc1)N1CCN(S(=O)(=O)c2cccs2)CC1
42) CN(C)S(=O)(=O)c1cccc(COC(=O)CN2C(=O)NC3(CCCC3)C2=O)c1
43) CCOC(=O)Nc1ccc2c(c1)C(=NO)c1ccccc1-2
44) O=C(Cn1c(=O)c2cccn2c2ccccc21)NCCCN1CCCCC1
45) CCOC(=O)CSc1nc2ccccc2n2cnnc12
46) Cc1ccc(OC(=O)c2cccc(C(=O)Oc3ccc(C)cc3)n2)cc1
47) NC(=O)CC(NC(=O)Cc1ccc(Cl)cc1)c1ccc(NCCN2CCOCC2)c([N+](=O)[O-])c1 (centres undefined)
48) CC(Sc1nc(-c2ccccc2)nc2c1COC(C)(C)C2)C(=O)N1CCOCC1 (centres undefined)
49) COc1cc2[nH]c(=O)n(CCCCCC(=O)NCCCN3CCCC3=O)c(=O)c2cc1OC
50) COc1cccc(-c2noc(C(C)n3nc(C)c([N+](=O)[O-])c3C)n2)c1 (centres undefined)

entry no.	41	42	43	44	45	46	47	48	49	50
GLA inh pH 4.5	-2	.	.	.	-1	1	.	6	0	-8
Rango-impB inh	0.8%	-1.1%	1.1%	-2.8%	-1.6%	?	0.3%	-1.2%	?	-4.4%
miR-21 reporter	-5%	-5%	.	-1%	-6%	-2%	0%	-2%	-9%	-43%
Rango release inh	19%	27%	-14%	2%	2%	13%	-2%	-3%	5%	-5%

51) COc1ccccc1CNC(=O)c1ccc(NS(=O)(=O)c2c(C)noc2C)cc1
52) CCOc1ccc(CC(=O)OCN2C(=O)c3ccccc3C2=O)cc1
53) O=C(C[n+]1ccc(C(=O)NCCCO)cc1)c1cccc(Br)c1
54) CC(=O)c1c(C)oc2ccc(OCc3ccccc3)cc12
55) Cc1cc(/C=C(\C#N)C(=O)N2CCOCC2)c(C)n1C1CCCC1
56) O=C(C1CC1c1ccccc1)N1CCOCC1 (centres undefined)
57) COc1ccc(CN2CCNC(=O)C2CC(=O)N(C)Cc2ccncn2)c(OC)c1 (centres undefined)
58) O=C(CCC(=O)N(CC(=O)NC1CCCC1)c1ccc(F)cc1)Nc1nccs1
59) O=C(Cn1cc(SCc2cccc(Cl)c2)c2ccccc21)N1CCOCC1
60) CCc1ccc(CNC(=O)C2CCC(=O)N(CCc3ccc(Cl)cc3)C2)nc1 (centres undefined)

entry no.	51	52	53	54	55	56	57	58	59	60
GLA inh pH 4.5	-7	-1	-4	.	-6	3	6	.	-3	.
Rango-impB inh	-0.3%	-2.5%	?	0.0%	-1.3%	-5.2%	4.6%	-2.7%	-0.5%	-4.1%
miR-21 reporter	-12%	0%	-1%	-47%	-8%	-3%	-2%	3%	-35%&-42%	0%
Rango release inh	6%	-13%	?	3%	-10%	0%	3%	4%	-10%	15%

Further compounds:
no.	smiles	GLA inh pH 4.5	Rango-impB inh	miR-21 reporter	Rango release inh
61	Cc1sc2ncnc(SCC(=O)N3c4ccccc4Sc4ccc(Cl)cc43)c2c1C	4	3.0%	-7%	-2%
62	Cc1ccc(CNC(=O)C(Cc2ccccc2)NS(=O)(=O)c2ccc(Br)s2)cc1 (centres undefined)	-12	-0.5%	11%	5%
63	COc1ccc(-n2nc(C(=O)NCC(=O)N3CCN(c4ccccn4)CC3)c3ccccc3c2=O)cc1OC	-2	-2.1%	-2%	0%
64	CCC(C)NCc1ccc(C(=O)OC)o1 (centres undefined)	7	-0.7%	-6%	8%
65	CC1CN(S(=O)(=O)c2ccc(C(=O)N3CCc4ccccc43)cc2)CC(C)O1 (centres undefined)	.	?	.	1%
66	CCc1ccc(-c2nc(NC(=O)c3ccc(OCC(=O)Nc4ccc(F)cc4)c(OC)c3)sc2C)cc1	8	-4.9%	2%	16%
67	COc1ccc2c(c1)CCCC2=O	.	1.1%	.	17%
68	CCN1CCc2nc(N)oc2CC1	-1	?	.	11%
69	CSc1ncc(Cl)c(C(=O)Nc2ccccc2Br)n1	-1	1.4%	0%	9%
70	CCC(=O)c1ccc(N2CCN(C(=O)Cc3ccccc3)CC2)c(F)c1	-3	-0.7%	10%	0%
71	CC(C)Cc1nc2oc3c(N4CCN(CCO)CC4)ncnc3c2c2c1CCCC2	-4	-2.6%	2%	0%
72	CC(C)Cn1c(NCCO)nc2ccccc21	6	1.5%	0%	-10%
73	CN(C)c1ccc2c3c(ccc(N(C)C)c13)COC2	10	-0.7%	1%	-15%
74	COC(=O)c1ccccc1NC(=O)CSc1nnnn1CC(=O)O	.	1.7%	3%	9%
75	O=C(CSc1nc2ccccc2s1)NC1CCCc2ccccc21 (centres undefined)	5	-1.3%	-6%	6%
76	Cc1c(OCC(=O)N[C@@H](CSCc2ccccc2)C(=O)O)ccc2c3c(c(=O)oc12)CCC3	.	-0.8%	-3%	2%
77	CCOc1ccc(NC(=O)Nc2cnccn2)cc1	-2	-1.6%	-6%	-7%
78	Cc1noc(C)c1C(=O)N1CCC(CO)(Cc2ccccc2)CC1	-6	0.9%	0%	1%
79	O=C(O)c1ccc(/C=C2\COc3ccccc3C2=O)cc1	.	-0.6%	-23%	32%
80	COC(=O)c1sccc1NC(=S)Nc1ccc(C)cc1	8	2.1%	-13%	8%

An excerpt; the hit share may differ from the screen's.
